Screening data as filed in PubChem.
Prx2 Sm inh: Schistosoma mansoni Prx2 inhibition. S. mansoni Prx2 activity coupled to TGR/GSH (TGR is thioredoxin glutathione reductase), NADPH fluorescence loss, qHTS; some inactives read as strong as hits. Potency, µM. 65,000 tested, 0.07% active; active means full or partial inhibition curve with a strong effect at the top dose; inconclusive means weaker partial or single-point curve; inactive means no accepted curve; also: series up to 57 µM; many of its hits are not listed in these tables
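Prx2 activity was followed as the loss of NADPH fluorescence (ex 365/em 450 nm), read every 30 sec for 8 min after H2O2 start. The enzyme mix (50 nM Prx2, 25 nM TGR, GSH, NADPH; pH 7.4 phosphate buffer) was incubated with compound for 15 min at room temperature first.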
LT uptake inh: anthrax lethal toxin internalization inhibition; Cells, anthrax lethal toxin internalization, FRET ratio (460/530); Potency, µM (doses to about 40 µM), inactives show top-dose activity change, negative = inhibition, usual class: inhibitors; 70,000 tested, 0.67% active; AID 912; active = well fitted falling ratio curve with the 530 nm signal flat; inconclusive = other ratio curves, or a change in one channel alone; inactive = flat curves in the ratio and both channels; the % refers to the ratio; also: % is scaled to controls: 0 for no effect and ±100 for the full control effect; nearly all actives have a fitted effect of over 50% in size; tested in ME-180 cells; beta-lactamase reporter
Starred values were filed as active, the others as inactive; ? = inconclusive; nt = no result given; [ ] = remark or other dose. Potency is read from the fitted curve at half-maximal effect. A portion of the library (hit frequency here may not be typical).

SMILES | Prx2 Sm inh | LT uptake inh
CCCOc1ccccc1C1NC(=O)NC(C)=C1C(=O)OCCOC (configuration not stated) | >57 | 11%
CCOc1cccc2cc(-c3csc(NC(=O)CCC(=O)N4CCN(C)CC4)n3)c(=O)oc12 | >57 | -3%
CC12C=C(/C=C/CCc3ccco3)C(C)(C1)C(CCc1ccco1)CC2=O (configuration not stated) | nt | -10%[8 µM]
N=c1n(CCO)c2ccccc2n1Cc1ccc(Cl)cc1 | >57 | -27%
c1ccc(Cc2nnc3sc(-c4cccs4)nn23)cc1 | >57 | -6%
CCOc1ccccc1C1C2C(=O)N(c3ccccc3)C(=O)C2ON1c1ccccc1 (configuration not stated) | >57 | ?
O=C1CC(N2CCC(O)(c3ccc(Cl)cc3)CC2)C(=O)N1 (configuration not stated) | >57 | ?
CCc1nnc(NC(=O)C2CC(=O)N(Cc3ccco3)C2)s1 (configuration not stated) | >57 | 7%
Cc1ccoc1C(=O)NCCCNC(=O)c1occc1C | >57 | -4%
O=C(CSc1nnc(Cc2cccs2)n1Cc1ccco1)Nc1cccc(Cl)c1 | >57 | -5%
CCc1ccc(NS(=O)(=O)c2ccc3[nH]cc(C(=O)N4CCCCC4)c(=O)c3c2)cc1 | >57 | 9%
Cc1ccccc1CN1C2=NCCN2c2ccccc21 | >57 | -8%
OCCNc1nc(-c2cccnc2)nc2ccccc12 | >57 | 13%
Cc1cc(F)ccc1S(=O)(=O)Nc1ccccc1C(=O)Nc1ncn[nH]1 | >57 | -4%
O=C(NCC(c1cccnc1)N1CCN(c2ccccc2F)CC1)c1ccccc1 (configuration not stated) | >57 | -1%
CC(C)Cn1c(SCC(=O)NC2CCCc3ccccc32)nc(O)cc1=O (configuration not stated) | >57 | 0%
CCOC(=O)N1CCN(C(=O)CSCC(=O)N=c2sc3cc(OC)ccc3n2C)CC1 | >57 | -2%
Cc1ccc(C(=O)N2CCOCC2)cc1Cl | >57 | -7%
O=C(NCCN1CCOCC1)c1ccc2c(c1)ncn2C1CCCC1 | >57 | -5%
Cc1noc(C)c1C(=O)N1CCC2(CC1)CCN(c1ccncc1)CC2 | >57 | -14%
CCCC[C@@H]1CN2[C@H](c3ccc(Br)cc3)[C@@H](C)CC[C@H]2C(=O)O1 | nt | -22%[8 µM]
Cn1c(NC(=O)C2CCCO2)cc(=O)n(C)c1=O (configuration not stated) | >57 | ?
CS(=O)(=O)c1nncn1-c1ccccc1 | >57 | -19%
Cc1nnc(Nc2ccc3c(c2)ncn3C)c2ccccc12 | >57 | -1%
O=C(CSc1nnc(CNC(=O)c2ccccc2F)o1)c1ccc(Cl)cc1 | >57 | -25%
c1ccc(-c2nnc(-c3ccco3)n2-c2ccccc2)cc1 | >57 | -11%
COc1ccc(CCN(C(=O)c2ccc(F)cc2)C2=CC3CCC(C2)N3C)cc1OC (configuration not stated) | >57 | 16%
O=C(CNC(=O)c1ccc(Cl)cc1)NCCCn1ccnc1 | >57 | ?
Cc1nn(Cc2ccccc2)c(Cl)c1C(=O)NCc1ccc(C)n1C | >57 | 9%
COc1ccc(OC)c2[nH]c(=O)c(CCNC(=O)c3ccc(Br)o3)cc12 | >57 | -6%
CCOC(=O)CNC(=O)CSc1nc2cccnc2n1C | >57 | 6%
CCc1ccc(-c2nn[nH]n2)cc1 | >57 | -1%
CC(C)n1c(SCc2ccccc2F)nc2c1c(=O)n(C)c(=O)n2C | >57 | ?
COC(=O)c1sc(N)c(C(=O)OC)c1CSc1nc2sc3c(c2c(=O)n1C)CCC3 | >57 | -14%
Cc1nnc2ccc(-c3cccc(C(F)(F)F)c3)nn12 | >57 | 1%
O=C(N1CCN(c2ccccc2)CC1)C(F)(F)C(F)F | >57 | 9%
C#CCN1C(=O)C(O)(CC(=O)c2ccc3c(c2)OCCO3)c2ccccc21 (configuration not stated) | >57 | -1%
COc1cccc(NS(=O)(=O)c2ccc3[nH]cc(C(=O)NCCCOC(C)C)c(=O)c3c2)c1 | >57 | 11%
COc1ccc(COC(=O)c2ccc(N3CCCC3=O)cc2)cc1F | >57 | ?
COc1ccc(OCC(O)CNc2ccc(Br)cc2)cc1 (configuration not stated) | >57 | -10%
COC(=O)c1ccc(OC(=O)C2CC(=O)N(c3ccc(C)cc3C)C2)cc1 (configuration not stated) | >57 | nt
CCOC(=O)C1C(=O)NC(N2CCOCC2)=NC1C(C)C (configuration not stated) | >57 | nt
CCOc1ccccc1C(=O)Nc1nccs1 | >57 | -17%
CC(=O)Nc1nc2n(n1)C(c1ccccc1)C=C(c1ccccc1)N2 (configuration not stated) | >57 | ?
O=C(OCCN1CCCCC1)c1ccc(O)cc1 | nt | -14%
CC(=O)N1CCn2c3c(c(=O)c4cc(C)ccc42)CCC31 (configuration not stated) | nt | 1%
Cc1cc(C)c(S(=O)(=O)Nc2ccccc2C(F)(F)F)c(C)c1 | >57 | ?
CCn1cc(-c2cc(C(F)(F)F)n3nc(C(=O)O)cc3n2)c(C)n1 | >57 | 4%
COC(=O)c1ccccc1NC(=O)CSc1nnnn1C1CCCCC1 | >57 | ?
CCOc1cc(-c2noc(CCC(=O)Nc3cccnc3)n2)ccc1OC | >57 | 9%
CC(NC(=O)CN1CCC(C(N)=O)CC1)c1ccccc1 (configuration not stated) | >57 | -11%
CCOC(=O)c1cccnc1SC(CC)C(=O)N1CCOCC1 (configuration not stated) | >57 | 14%
CN1CCN(C(CNS(=O)(=O)c2ccc(Cl)cc2)c2cccnc2)CC1 (configuration not stated) | >57 | 9%
CCOC(=O)c1c(CN2CCCCC2)n(C)c2cc(Br)c(OC)cc12 | >57 | nt
CC(=O)N1CCC[C@@]2(CCN(Cc3cc(C(F)(F)F)cc(C(F)(F)F)c3)C2)C1 | >57 | -7%
O=C(Nc1nc2ccc(S(=O)(=O)N3CCCC3)cc2s1)C1CCCCC1 | >57 | ?
CCc1nc2cc(C)nn2c2nc3ccccc3n12 | >57 | 4%
O=c1[nH]c2ccc(S(=O)(=O)N3CCN(C4CCCCC4)CC3)cc2[nH]c1=O | >57 | 7%
Cc1cccc(N2C(=O)CC(N3CCN(c4cccc(C(F)(F)F)c4)CC3)C2=O)c1 (configuration not stated) | >57 | -25%
Cc1cc(NC(=O)CCC(=O)N(CC(=O)NC2CCCC2)c2ccc3c(c2)OCCO3)no1 | >57 | -6%

A few values from the list:
O=c1[nH]c2ccc(S(=O)(=O)N3CCN(C4CCCCC4)CC3)cc2[nH]c1=O in LT uptake inh reads 7%
CC(=O)N1CCC[C@@]2(CCN(Cc3cc(C(F)(F)F)cc(C(F)(F)F)c3)C2)C1 in Prx2 Sm inh reads >57

The results go on.
SMILES | Prx2 Sm inh | LT uptake inh
CCNC(=O)CC1C(=O)N(c2ccc(F)cc2)C(=O)N1CCc1ccc(OC)cc1 (configuration not stated) | >57 | 11%
COc1ccccc1-c1nccc(NCc2cccnc2)n1 | >57 | 6%
O=C(c1ccccc1NS(=O)(=O)c1ccc(Br)s1)N1CCOCC1 | >57 | -4%
CCC(=O)N(Cc1cc(=O)[nH]c2ccccc12)C1CCCCC1 | >57 | 4%
O=C(c1ccncc1)N1CCC2(CC1)CN(c1ccccc1)C2 | >57 | 4%
CC[C@H](C(=O)c1cccs1)C(O)(C(F)(F)F)C(F)(F)F | >57 | -2%[8 µM]
CCS(=O)(=O)c1nc2ccccc2n1CC(=O)N1CCCCC1 | >57 | 9%
COc1ccc2[nH]cc(C(=O)CN3CCN(C(=O)c4ccco4)CC3)c2c1 | >57 | -22%
O=C(Nc1cccc(-c2cn3cccnc3n2)c1)c1ccc(Br)o1 | >57 | -25%
Cc1cc(C)nc(N(C#N)CC(=O)Nc2ccccc2)n1 | >57 | 4%
COc1cccc(Cn2c(=O)c(C)nc3cnc(N4CCN(C)CC4)nc32)c1 | >57 | -3%
COc1ccc(NC(=O)Nc2cccc(C)n2)cc1 | >57 | -13%
CN1CCN(c2ncc3nc(-c4ccccc4)c(=O)n(Cc4ccc(F)cc4)c3n2)CC1 | >57 | ?
COc1ccc(-n2c(SCC(N)=O)nnc2-c2ccccc2F)cc1 | >57 | 13%
COc1cccc(-c2csc(N3CCN(CC(=O)Nc4ccc5c(c4)OCO5)CC3)n2)c1 | >57 | -5%
COc1cc2c(cc1OC)CN(S(=O)(=O)c1ccc3c(c1)OCCO3)CC2 | >57 | -23%
COCCNC(=O)[C@@]1(Cc2ccccc2)C=C[C@@H](C)N1C(C)=O | nt | 0%
C=CCn1c(SCC(=O)c2cccs2)nc2sc(C)cc2c1=O | >57 | -11%
CCCC1(C(=O)OC)C=C2C(=C(c3ccccc3)C(=O)C2C)CN1 (configuration not stated) | >57 | -16%
Cc1cc(N2CCN(C)CC2)nc2ccc(NC(=O)c3ccc4c(c3)OCO4)cc12 | >57 | ?
COc1ccccc1-c1nnc(NC(=O)OCC(C)C)s1 | >57 | -1%
Cc1cc(C)c(S(=O)(=O)N(CC(=O)O)C2CCCCC2)c(C)c1 | >57 | 5%
Cc1cnnc2c1-c1nonc1CC2 | >57 | -5%
COc1cc2c(C)nc(C)c(C#N)c2cc1OC | >57 | -4%

Reprinted from above for reference:
SMILES | Prx2 Sm inh | LT uptake inh
CN1CCN(c2ncc3nc(-c4ccccc4)c(=O)n(Cc4ccc(F)cc4)c3n2)CC1 | >57 | ?
COc1ccc(-n2c(SCC(N)=O)nnc2-c2ccccc2F)cc1 | >57 | 13%

(further entries)
SMILES | Prx2 Sm inh | LT uptake inh
CCN(CC)c1ccc(NC(=O)CSc2nc3ccccc3c(=O)[nH]2)cc1 | >57 | 1%
O=C1SC(SCc2ccccc2)=N/C1=C\c1ccco1 | >57 | -9%
COc1ccc(N(C(=O)c2ccc(Br)o2)C2C=CS(=O)(=O)C2)cc1 (configuration not stated) | >57 | -21%
CC(=O)Nc1ccc(S(=O)(=O)Nc2ccc(N3CCOCC3)cc2)cc1 | >57 | -6%
CCN=C1SC(C(N)=O)CC(=O)N1CC (configuration not stated) | >57 | 2%
Cc1nnc(SCC(=O)Nc2nccs2)s1 | >57 | -2%
OC1(c2ccccc2F)CCN(Cc2nnc(-c3ccccc3)o2)CC1 | >57 | ?
CCCn1nc(C(=O)OCC(=O)c2ccc3c(c2)NC(=O)CO3)c2ccccc2c1=O | >57 | -4%
Cc1ccc2nc(C3CCN(CC(=O)N4CCCCCC4)CC3)[nH]c2c1 | >57 | ?
CN(c1ccccc1)S(=O)(=O)c1ccc(C(=O)OCC(=O)NCc2ccco2)cc1 | nt | -17%
CCOc1cc(N2CCOCC2)c(OCC)cc1NC(=O)C(NC(=O)c1ccco1)C(C)C (configuration not stated) | >57 | -7%
Cc1ccccc1-n1nc(C(=O)O)c(C)c(C#N)c1=O | >57 | 15%

Rewritten in CSV form: entries from further up.
mol,Prx2 Sm inh,LT uptake inh
CN(c1ccccc1)S(=O)(=O)c1ccc(C(=O)OCC(=O)NCc2ccco2)cc1,nt,-17%
CCOc1cc(N2CCOCC2)c(OCC)cc1NC(=O)C(NC(=O)c1ccco1)C(C)C (configuration not stated),>57,-7%
Cc1ccccc1-n1nc(C(=O)O)c(C)c(C#N)c1=O,>57,15%

The listing picks up with the 2 entries that preceded the break.
SMILES | Prx2 Sm inh | LT uptake inh
CCOc1cc(N2CCOCC2)c(OCC)cc1NC(=O)C(NC(=O)c1ccco1)C(C)C (configuration not stated) | >57 | -7%
Cc1ccccc1-n1nc(C(=O)O)c(C)c(C#N)c1=O | >57 | 15%
COCCn1c(=O)c(C)nc2cnc(N(C)C)nc21 | >57 | -10%
Brc1c(CSc2nc3ccccc3o2)nc2ncccn12 | >57 | -1%
COc1ccc(C2CC(c3cccc(C)c3)n3ncnc3N2)cc1 (configuration not stated) | >57 | -2%
CC(C)/C(=N/[N+](C)(C)C)c1ccccc1 | >57 | 5%[8 µM]
Cc1nc2cnc(N3CCOCC3)nc2n(C)c1=O | >57 | -6%
O=C(Nc1ccc(N2CCCCC2)c(C(=O)O)c1)c1ccco1 | >57 | 5%
Nc1scc(-c2ccncc2)c1Cl | >57 | ?
Cc1ccc(S(=O)(=O)NC2=NCN(Cc3cccnc3)CN2)cc1 | >57 | ?
Cc1c(C(=O)Nc2ccncc2)oc2c1C(=O)CC(C)(C)C2 | >57 | nt
CCN1CCN(CC(O)COc2ccc(C(C)=O)cc2)CC1 (configuration not stated) | >57 | -4%
COc1cc(C2c3c(oc4ccccc4c3=O)C(=O)N2c2ccc(C)cn2)ccc1O (configuration not stated) | >57 | -9%
COC(=O)c1ccc(NC(=O)C2CCCN2S(=O)(=O)c2ccc(OC)cc2)cc1 (configuration not stated) | >57 | -11%
CCc1cc2ccccc2nc1SCC(=O)N1CCN(C(=O)c2ccco2)CC1 | >57 | ?
O=c1[nH]nc(Sc2ncnc3sccc23)n1CCc1ccccc1 | >57 | 14%
CCCc1cc(=O)oc2cc(OCC(=O)Nc3cc(C)on3)ccc12 | >57 | -14%
CN1CCc2nc(SCCOc3ccccc3)c(C#N)cc2C1 | >57 | 29%
Fc1ccc(Br)cc1C1C=C(c2ccc(Br)s2)Nc2ncnn21 (configuration not stated) | >57 | -21%
c1csc(-c2csc3nc(CN4CCOCC4)nc(NCc4ccc5c(c4)OCO5)c23)c1 | >57 | -30%
Cc1ccc(NC(=O)CS(=O)CC(=O)N(CC(=O)NC2CCCC2)c2cc(C)ccc2C)cc1 (configuration not stated) | >57 | 0%
COc1cccc(-c2nc(C(N)=O)c3[nH]c(=O)n(-c4ccccc4)c3n2)c1OC | >57 | -9%
O=c1cccc2n1CC1CC2CN(c2ncnc3c2cnn3-c2ccc(Cl)cc2)C1 (configuration not stated) | >57 | 18%
CC(C)(C)c1ccc(C(=O)CSc2ncn[nH]2)cc1 | >57 | -20%
O=C(c1ccco1)c1cn(CC(=O)N2CCCCC2)c2ccccc12 | >57 | -9%
